Mtb growth = M. tuberculosis H37Rv growth inhibitors, H37Rv strain (AID 1626) | M. tuberculosis H37Rv growth inhibition; higher % means a stronger effect | inhibition, % at 10 µM, or IC50 in µM where a hit was titrated | 0.95% of 220,000 active;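 active = confirmed in a dose series; inconclusive = inhibition above 80% but not taken into the dose series; inactive = below 80% or under 30% at every dose of the series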;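 note: bacteria incubated seven days before Alamar blue readout; 0% = bacteria only wells and 100% = bacteria with antibiotic wells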
Arbovirus anti = blocks arbovirus infection; arbovirus infection cell-based antiviral screen; inhibition, % at 10 µM; 0.37% of 200,000 active; AID 1251;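 active = inhibition from about 30%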;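 note: bluetongue infection of BSR cells; cell survival read as ATP light after 72 h; 0% = infected wells without compound and 100% = uninfected wells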
Mtb bLac sens = beta-lactam sensitization of Mtb H37Rv; M. tuberculosis H37Rv growth with meropenem, percent inhibition; hits of this screen are not shown here; inhibition, % at 25 µM; 0.27% of 330,000 active;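 active = about 74% or more and at least 40 points above the plate without the antibiotic, then above 30% in a dose series; inconclusive = first-round hits that could not be retested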;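 note: growth measured after seven days incubation then overnight dye step; 0% = bacteria only wells and 100% = bacteria with antibiotic; twin plates without the antibiotic show which effects depend on it; some results filed as inactive read as strong as hits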
RecA intein inh = Mtb RecA intein splicing inhibition. cell-free RecA intein splicing, fluorescence. inhibition, %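 (about 9 µM by stock and volumes)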. 0.75% of 290,000 active. P9WHJ3; in the data active = inhibition above about 30%; inconclusive = no clear call, values can overlap the other calls;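 note: 0% = vehicle wells and 100% = reference inhibitor control wells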
Target sequence (P9WHJ3 whole entry, looked up): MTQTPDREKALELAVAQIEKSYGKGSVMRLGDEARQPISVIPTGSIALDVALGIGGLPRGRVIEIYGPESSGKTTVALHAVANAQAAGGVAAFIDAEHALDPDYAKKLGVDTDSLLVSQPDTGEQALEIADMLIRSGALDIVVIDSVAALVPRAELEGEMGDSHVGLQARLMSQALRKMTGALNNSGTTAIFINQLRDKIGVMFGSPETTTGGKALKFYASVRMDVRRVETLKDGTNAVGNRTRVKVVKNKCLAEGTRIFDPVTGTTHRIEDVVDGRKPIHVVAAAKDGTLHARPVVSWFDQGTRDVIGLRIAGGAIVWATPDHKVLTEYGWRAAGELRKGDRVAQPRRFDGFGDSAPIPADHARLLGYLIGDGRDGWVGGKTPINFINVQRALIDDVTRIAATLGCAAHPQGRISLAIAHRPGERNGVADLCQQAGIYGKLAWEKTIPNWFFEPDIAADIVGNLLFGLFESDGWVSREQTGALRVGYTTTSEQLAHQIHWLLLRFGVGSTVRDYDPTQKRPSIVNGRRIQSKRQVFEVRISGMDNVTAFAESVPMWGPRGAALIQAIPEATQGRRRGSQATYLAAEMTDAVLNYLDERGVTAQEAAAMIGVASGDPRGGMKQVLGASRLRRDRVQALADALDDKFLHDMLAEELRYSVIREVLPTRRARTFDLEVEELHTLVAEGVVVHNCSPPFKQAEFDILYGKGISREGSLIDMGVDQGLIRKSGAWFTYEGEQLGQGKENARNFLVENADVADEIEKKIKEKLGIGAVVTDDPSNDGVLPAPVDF
YopH PTP inh = inhibitors of Yersinia enterocolitica YopH tyrosine phosphatase | fluorescence Ex485/Em525 | inhibition, %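 (about 10 µM by stock and volumes)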 | 0.16% of 140,000 active | AID 898;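 active = inhibition of 50% or more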;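 note: controls were vehicle for no effect and minimum signal wells for full effect; inactives centre near -20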
Arbovirus anti repeat = recorded beside Arbovirus anti, whose call it bears; inhibition, %; measured here: 10K subset replicate screen; many hits read low in the repeat;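 first of two repeat runs on a subset; 0% = infected and 100% = uninfected wells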
Numbers without * were called inactive; ? = inconclusive; . = no result given. The list is partial; count on the stated rates, not on these rows.

SMILES	Mtb growth	Arbovirus anti	Mtb bLac sens	RecA intein inh	YopH PTP inh	others
CNC(C)C#Cc1ccc2sc3cccc(OC)c3c(=O)c2c1 (stereo unspecified)	.	.	11	-348	.
CC(C)(C)NC(=O)NC(=O)COC(=O)Cc1c(Cl)cccc1Cl	-8%	-6	2	-1.3	.
COc1ccc(CC(=O)Nc2cccc(/C(C)=N/NC(=O)c3cccc([N+](=O)[O-])c3)c2)cc1	6%	-20	31	-4.8	-45
COCCn1c(=O)[nH]c(=O)c2cc(C(=O)c3cc(Cl)ccc3O)cnc21	1%	8	4	1.8	.
CCC[N+](CC#Cc1ccccc1)(CCC)CC(=O)OC	0%	6	-4	-0.2	-17
COc1ccccc1Nc1c([N+](=O)[O-])cc(C)cc1[N+](=O)[O-]	12%	7	9	1.1	.
Cn1c(NC(=O)c2ccc(Cl)cc2)c(-c2ccccn2)c(=O)c2ccccc21	-13%	-8	-14	8.0	-36
COc1ccc2c(c1)c(=O)oc1cc3occ(C(C)(C)C)c3cc12	.	-4	-6	-1.1	-5
CCn1c(Cc2cccn2C)nnc1SCC(=O)c1ccc(C)cc1	1%	9	-13	2.8	-34
CCCCCCC(O)(c1ccccc1)C(CN1CCOCC1)c1ccccc1 (stereo unspecified)	.	.	20	16	.
CCN(CC)C(=O)Cn1cc(S(=O)(=O)CC(=O)NCc2ccc(F)cc2)c2ccccc21	.	.	-3	-1.9	.
Nc1c(C(=O)NCc2ccc(Cl)cc2)sc2nc3c(c(C(F)(F)F)c12)CCC3	?	14	99	-17	-52
COc1ccccc1NS(=O)(=O)c1cccc(NC(=O)c2[nH]c(C)c(C(C)=O)c2C)c1	6%	.	-8	2.2	.
CC(=O)Nc1sc(C)c(C)c1C(=O)OCC(=O)Nc1cc(S(=O)(=O)N2CCCCC2)ccc1Cl	0%	-9	-4	-0.7	-5
O=C(Cn1c(COc2ccc(Cl)cc2)nc2ccccc21)NCC(F)(F)F	.	7	-7	2.1	-20
COc1cc(C)ccc1OCCCOc1cc(C)ccc1Cl	2%	.	-4	28	-31
CCOC(=O)CC1C(=O)NCCN1Cc1cccc(C(F)(F)F)c1 (stereo unspecified)	-1%	-6	0	1.0	-38	Arbovirus anti repeat=9
Cc1ccnc(NC(=O)c2ccc3c(c2)C(=O)N(CCC(C)C)C3=O)c1	.	.	57	0.7	.
CCN1CC(CN(C)Cc2nc(-c3ccc(Cl)cc3)no2)CC1=O (stereo unspecified)	0%	7	-3	-1.0	.
Cc1ccc(S(=O)(=O)NCc2ccc(C(=O)NCCc3ccc(S(N)(=O)=O)cc3)cc2)cc1	.	.	11	-3.3	.
O=C(Cc1cccs1)NCc1ccccc1Br	.	.	6	-7.2	.
CC(=O)c1ccc(N2CCN(C(=S)Nc3cccc(Cl)c3)CC2)cc1	7%	6	2	0.2	-13
Cn1ncc(Cl)c1C(=O)N1CCN(C23CC4CC(CC(C4)C2)C3)CC1	.	.	-1	0.1	.
CCOC(=O)C1=C(COC(=O)/C=C/c2cccc([N+](=O)[O-])c2)NC(=O)NC1C (stereo unspecified)	.	.	-11	-0.4	.
O=C(CN1CCC(C(=O)c2ccc3c(c2)OCCO3)CC1)Nc1ccccc1C(F)(F)F	.	.	-1	17	.

Going on with the list:
SMILES	Mtb growth	Arbovirus anti	Mtb bLac sens	RecA intein inh	YopH PTP inh	others
COc1cccc(C2C3=C(CC(C)(C)CC3=O)OC(N)=C2[N+](=O)[O-])c1 (stereo unspecified)	-6%	5	0	-1.5	-28
Cc1cccc(NC(=O)Cn2cc(C(=O)C3CC3)c3ccccc32)c1C	.	.	-4	2.5	.
CC(=O)c1c(C)[nH]c(C(=O)CN2C(=O)NC(C)(c3ccc4c(c3)OCCO4)C2=O)c1C (stereo unspecified)	.	.	-13	1.7	.
Brc1ccc(-c2nnc3n2C2(CCCC2)Cc2ccccc2-3)o1	-1%	-4	2	13	-13
CCOC(=O)C1CN(S(=O)(=O)c2ccc(C)cc2)c2cc(S(=O)(=O)CC)ccc2O1 (stereo unspecified)	-4%	-2	10	.	-37
CN(C)S(=O)(=O)N1CCc2ccccc21	0%	2	-11	1.5	-26
COc1ccc(NC(=O)NN2CCN(C)CC2)c(OC)c1	.	.	-6	0.9	.
CCCC(=O)Nc1cc2c3c(c1)C(C)C(=O)N3CCC2 (stereo unspecified)	.	.	-6	4.6	.
O=C(CCNc1n[nH]c(=O)[nH]c1=O)N/N=C\c1ccc(Br)cc1	-10%	.	7	-2.1	.
Cc1nn(C)cc1N1C(=O)c2cccc3c(N)ccc(c23)C1=O	2%	.	3	-268	.
CCOC(=O)C1CCN(Cc2cccc(OCc3ccccc3)c2)CC1	.	.	-3	3.0	.
O=C(Nc1c2c(nn1-c1ccccc1)CS(=O)(=O)C2)c1cccs1	.	.	-9	-0.2	.
Cc1ccccc1-n1nc2c(c1NC(=O)COc1ccc(Cl)cc1)CS(=O)C2 (stereo unspecified)	0%	5	6	2.5	-34	Arbovirus anti repeat=0
Cc1ccc(S(=O)(=O)N2CCCC2C(=O)NCc2ccc3c(c2)OCO3)cc1 (stereo unspecified)	-7%	-9	-1	-1.9	.
O=C1CC(Sc2ncn[nH]2)C(=O)N1c1ccccc1 (stereo unspecified)	0%	8	-6	6.5	-7
CN(CCNC(=O)c1ccc(N2CCCC2=O)cc1)CCc1ccccc1	-4%	-4	-9	-0.4	27
CC(C)(C)NC(=O)CN1CCN(C(=O)CCl)CC1	10%	8	-2	0.0	.
COc1cc(CNCCCN2CCOCC2)cc(Br)c1OCC(=O)N1CCCCC1	5%	0	-2	-0.1	-35
COc1ccc(OCc2nnc(SCC(=O)Nc3ccccc3Cl)o2)cc1	.	.	3	0.9	.
COc1cc(C(=S)N2CCOCC2)cc(OC)c1OC(=O)c1cc([N+](=O)[O-])c(C)c([N+](=O)[O-])c1	4%	3	-1	-1.8	-23
CSC(=NCc1cccnc1)NS(=O)(=O)c1cccs1	-1%	1	-8	5.5	-34
O=[N+]([O-])c1cccnc1Oc1ccc(C2SCCS2)cc1	-3%	.	92	1.9	.
O=C(Nc1ccccc1)c1cccc(S(=O)(=O)N2CCCCC2)c1	-4%	-6	-12	2.3	10
Cc1cc(Sc2nccn2C)ncc1[N+](=O)[O-]	3%	5	-6	1.2	-27
CCCCCc1c(O)nc(SCCN(C)C)[nH]c1=O	0%	.	0	1.7	.

Further compounds follow:
SMILES	Mtb growth	Arbovirus anti	Mtb bLac sens	RecA intein inh	YopH PTP inh	others
COc1ccc(C)cc1NC(=O)CSc1nnc(-c2cc3cccc(OC)c3o2)n1N	3%	-10	20	-15	8
CCN(CC(=O)Nc1cc(C)c(Cl)cc1OC)CC(=O)NC1CCS(=O)(=O)C1 (stereo unspecified)	12%	11	7	2.0	.
CCC(C)(C)C(=O)Nc1ncc(S(=O)(=O)c2ccc([N+](=O)[O-])cc2)s1	17%	14	89	-0.2	7
CC(C)(C)NC(=O)C(=O)NN=C1CCCCCC1	-6%	2	-8	-0.1	.
CCS(=O)(=O)c1nc(S(=O)(=O)c2ccc(Cl)cc2)c(N2CCCC2)s1	.	.	-4	-2.2	.
CCN1CCN(S(=O)(=O)c2ccc(OC)c(NC(=O)c3ccccc3F)c2)CC1	.	.	-5	0.1	.
O=C(Nc1ccc(CN2CCOCC2)cc1)c1cc2ccccc2o1	-3%	3	0	6.9	-37
COc1ccc(Nc2oc(COc3ccc(Cl)cc3)nc2C#N)cc1	-1%	-26	-1	14	6
CC(Sc1nnc(Cc2cccs2)n1C1CCCCC1)C(=O)N1CCc2ccccc21 (stereo unspecified)	1%	-13	-6	6.9	-5
COc1ccc2oc(C(=O)N3CCc4ccccc43)c(C)c2c1	.	.	59	0.8	.
CC(=O)Oc1ccc2oc(=O)c3c(c2c1)CCCN3C(=O)CN1CCOCC1	-2%	-5	1	6.3	.
CNC(=O)c1c(NC(=O)c2cccc(N3C(=O)CCC3=O)c2)sc2c1CCC2	5%	.	3	-1.6	.
Cc1ccc(CSc2nnc(-c3ccco3)n2N)cc1	-7%	7	5	-1.8	-32
O=C(/C=C/c1ccccc1)NC(=S)Nc1ccccc1C(=O)NC1CCCCC1	-1%	12	5	3.1	-15
COc1cc(/C=C2\SC(=O)N(CC(=O)Nc3ccccc3F)C2=O)cc(Cl)c1O	.	.	-6	-2.5	.
CCN(CC(=O)Nc1ccccc1C(F)(F)F)C(=O)Cc1ccccc1	.	.	6	2.3	.
CC1=C(C(=O)OC(C)C)C(c2ccc(Br)s2)NC(=O)N1C (stereo unspecified)	8%	0	-4	1.0	-28	Arbovirus anti repeat=6
CC(C)(C)n1nc2c(c1NC(=O)c1ccc(F)c(F)c1)CS(=O)(=O)C2	.	.	7	1.8	.
CC(C)(C)NC(=O)COC(=O)c1ccccc1Nc1ccc(SC(F)F)cc1	36%	24	98	-1.1	-15
C/C(=N\NC(=S)NCC(C)(C)C)c1cc(F)cc(F)c1O	?	.	99	-0.5	.
CN(Cc1ccccc1)C(=O)COc1ccc(N(C)S(=O)(=O)c2ccc(F)cc2)cc1	-2%	.	3	3.5	.
CN(C)C(=O)Oc1ccnc2cc(Cl)ccc12	4%	-3	-1	0.2	.
C=C(C)COc1ccc(-c2[nH]ncc2Oc2cccc(OC)c2)c(O)c1	1%	-31	-1	6.6	-58
COC(=O)c1ccc(OC)c(CSc2nnc(-c3ccc(C(C)(C)C)cc3)o2)c1	-8%	9	7	2.8	-23
CN1CCc2c(sc(NC(=O)c3ccc4ccccc4c3)c2C(N)=O)C1	.	.	84	0.0	.
O=S(=O)(/N=C(/Nc1cccc2ccccc12)c1ccc(F)cc1)c1ccccc1	.	.	4	6.4	.
COCCNC(=O)/C(C#N)=C/c1c(N2CCN(C)CC2)nc2c(C)cccn2c1=O	.	.	3	-211	.
N#Cc1ccc(COC(=O)CC(NC(N)=O)c2ccc(Cl)cc2)cc1 (stereo unspecified)	.	.	1	-5.5	.
O=C(NCC1CCCO1)c1onc(CSc2ccc(F)c(F)c2)c1C(=O)O (stereo unspecified)	-8%	6	-5	0.1	23
CCCc1cc(=O)oc2cc(C)cc(OCC(=O)Nc3cccnc3)c12	.	.	-1	-8.5	.

An excerpt taken from the entries so far:
SMILES	Mtb growth	Arbovirus anti	Mtb bLac sens	RecA intein inh	YopH PTP inh	others
COc1ccc(Nc2oc(COc3ccc(Cl)cc3)nc2C#N)cc1	-1%	-26	-1	14	6
CC(Sc1nnc(Cc2cccs2)n1C1CCCCC1)C(=O)N1CCc2ccccc21 (stereo unspecified)	1%	-13	-6	6.9	-5
COc1ccc2oc(C(=O)N3CCc4ccccc43)c(C)c2c1	.	.	59	0.8	.
CC(=O)Oc1ccc2oc(=O)c3c(c2c1)CCCN3C(=O)CN1CCOCC1	-2%	-5	1	6.3	.
CNC(=O)c1c(NC(=O)c2cccc(N3C(=O)CCC3=O)c2)sc2c1CCC2	5%	.	3	-1.6	.
Cc1ccc(CSc2nnc(-c3ccco3)n2N)cc1	-7%	7	5	-1.8	-32
O=C(/C=C/c1ccccc1)NC(=S)Nc1ccccc1C(=O)NC1CCCCC1	-1%	12	5	3.1	-15
COc1cc(/C=C2\SC(=O)N(CC(=O)Nc3ccccc3F)C2=O)cc(Cl)c1O	.	.	-6	-2.5	.
CCN(CC(=O)Nc1ccccc1C(F)(F)F)C(=O)Cc1ccccc1	.	.	6	2.3	.
CC1=C(C(=O)OC(C)C)C(c2ccc(Br)s2)NC(=O)N1C (stereo unspecified)	8%	0	-4	1.0	-28	Arbovirus anti repeat=6
CC(C)(C)n1nc2c(c1NC(=O)c1ccc(F)c(F)c1)CS(=O)(=O)C2	.	.	7	1.8	.
CC(C)(C)NC(=O)COC(=O)c1ccccc1Nc1ccc(SC(F)F)cc1	36%	24	98	-1.1	-15
C/C(=N\NC(=S)NCC(C)(C)C)c1cc(F)cc(F)c1O	?	.	99	-0.5	.
CN(Cc1ccccc1)C(=O)COc1ccc(N(C)S(=O)(=O)c2ccc(F)cc2)cc1	-2%	.	3	3.5	.
CN(C)C(=O)Oc1ccnc2cc(Cl)ccc12	4%	-3	-1	0.2	.
C=C(C)COc1ccc(-c2[nH]ncc2Oc2cccc(OC)c2)c(O)c1	1%	-31	-1	6.6	-58
COC(=O)c1ccc(OC)c(CSc2nnc(-c3ccc(C(C)(C)C)cc3)o2)c1	-8%	9	7	2.8	-23
CN1CCc2c(sc(NC(=O)c3ccc4ccccc4c3)c2C(N)=O)C1	.	.	84	0.0	.
O=S(=O)(/N=C(/Nc1cccc2ccccc12)c1ccc(F)cc1)c1ccccc1	.	.	4	6.4	.
COCCNC(=O)/C(C#N)=C/c1c(N2CCN(C)CC2)nc2c(C)cccn2c1=O	.	.	3	-211	.
N#Cc1ccc(COC(=O)CC(NC(N)=O)c2ccc(Cl)cc2)cc1 (stereo unspecified)	.	.	1	-5.5	.

From PubChem BioAssay
